Screens from PubChem.
D2 PAM: human D2 receptor positive allosteric modulation | DiscoveRx D2 beta-arrestin cells, luminescence, 90 min; 100% = 57 uM dopamine signal | P14416 | potentiation, % (test concentration not listed) | AID 624464 | hit rate 0.23% among 360,000; active = potentiation of 50% or more; inconclusive = 30% to 50%; inactive = 30% or less;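 also: compound concentration not given in the record; tested on top of an EC20 dose of dopamine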
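PathHunter beta-arrestin assay in DiscoveRx D2 cells. Compounds were added with an EC20 of dopamine (50 nM final) for 90 min at 37 deg C. Luminescence was read 1 h after detection reagent, with 57 uM dopamine as the EC100 control.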
D2 ag: activates the human D2 dopamine receptor | DiscoveRx PathHunter D2 beta-arrestin, luminescence, 90 min; 100% = 57 uM dopamine signal | activation, % (test concentration not listed) | hit rate 0.084% among 360,000; in the data active = activation above about 40%; inconclusive = about 15% to 40%; inactive = below about 15%; also: compound concentration not given in the record; the text of the record calls up to 30% inactive
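Agonist mode: compounds alone added to overnight-plated D2 PathHunter cells for 90 min at 37 C, with 57 uM final dopamine (EC100) defining full response. Beta-arrestin recruitment detected by chemiluminescent reagent, read after 1 h at ambient temperature.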
TRPML1 agonist: agonists of human TRPML1 channel | Q9GZU1 | TRPML1-expressing cells, Ca2+ dye fluorescence, FDSS; host cell line not named in the record; reference of the full effect not given here | activation, % (no concentration beside the values) | hit rate 0.12% among 410,000 | AID 624414; in the data active = activation above about 50%; inconclusive = about 30% to 50%; inactive = below about 30%; also: 0% is about no effect; the text of the record puts the active cut at 80%
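Cells: TRPML1-DL, 1X Tet inducer, ~16 h at 37 degrees C/5% CO2. Dye: ABD Ca8 no-wash + quencher, 45-90 min RT. Read: 10 s baseline, compound add, 110 s agonist phase; 54-4 EC80 (4uM final), 110 s antagonist phase.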
PINK1 expr mod: changes PINK1 expression. PINK1 immunofluorescence, high-content cytometry, 24 h. Potency, µM (top dose mostly 76.6 µM), without a hit: top-dose activation (PINK1 increase), usual class: activators. hit rate 0.2% among 410,000; active = well fitted activation curve with a large enough effect; inconclusive = small, poorly fitted or top-dose-only effect; inactive = flat fitted curve, though single readings scatter; cell line not stated here;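 also: potency is read from the fitted curve at half-maximal effect; % of control where 0% means no effect; nearly all actives have a fitted effect of over 65% in size; a mitochondrial uncoupler was the plate control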
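Readout is PINK1 immunofluorescence, quantified alongside mitochondrial, cell and nuclear markers by laser-scanning microplate cytometry. Cells from a stable line were exposed to compound titrations (5 concentrations) for 24 hours, with CCCP controls.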
CtBP-E1A inh: blocks the CtBP interaction with E1A; AlphaScreen GST-E1A/His-CtBP binding, 1536-well; hits give low values; control for the full effect not named in the record; activity change, % (no concentration beside the values); hit rate 0.49% among 340,000; in the data active means activity change below about -65%; inconclusive means about -30% to -65%; inactive means above about -30%; also: % is scaled to controls: 0 for no effect and ±100 for the full control effect; compound concentration not given in the record
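AlphaScreen with 125 nM GST-E1A and 125 nM His-CtBP (5X stocks) in Tris pH 8.0, 300 mM NaCl, BSA, Tween 20, TCEP. Compounds preincubated 2 h at 37 deg C, then glutathione donor/nickel acceptor beads added for 1 h at 37 deg C in dark.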
Six1-Eya2 inh: inhibitors of human Six1/Eya2 interaction; AID 651725; AlphaScreen GST-Six1/His-Eya2 binding, biochemical; hits give low values; control for the full effect not named in the record; activity change, % (test concentration not listed); hit rate 0.56% among 360,000; in the data active = activity change below about -65%; inconclusive = about -30% to -65%; inactive = above about -30%; also: % is scaled to controls: 0 for no effect and ±100 for the full control effect; compound concentration not given in the record
Target sequence (O00167 whole entry, looked up): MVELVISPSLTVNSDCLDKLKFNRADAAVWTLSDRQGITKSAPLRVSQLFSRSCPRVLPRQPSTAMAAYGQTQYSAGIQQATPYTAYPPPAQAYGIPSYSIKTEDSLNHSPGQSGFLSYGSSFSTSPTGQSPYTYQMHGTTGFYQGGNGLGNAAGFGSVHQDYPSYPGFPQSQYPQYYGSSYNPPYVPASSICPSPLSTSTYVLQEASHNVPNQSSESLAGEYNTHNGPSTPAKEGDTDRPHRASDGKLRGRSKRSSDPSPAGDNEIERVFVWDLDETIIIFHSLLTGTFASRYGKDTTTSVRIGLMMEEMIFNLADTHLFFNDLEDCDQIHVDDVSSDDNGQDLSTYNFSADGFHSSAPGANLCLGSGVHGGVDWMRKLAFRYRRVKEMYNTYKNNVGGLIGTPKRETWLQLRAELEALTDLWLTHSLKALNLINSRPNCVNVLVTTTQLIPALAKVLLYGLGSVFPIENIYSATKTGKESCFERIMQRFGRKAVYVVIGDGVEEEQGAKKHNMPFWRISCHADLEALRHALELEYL
Target sequence (Q15475 whole entry, looked up): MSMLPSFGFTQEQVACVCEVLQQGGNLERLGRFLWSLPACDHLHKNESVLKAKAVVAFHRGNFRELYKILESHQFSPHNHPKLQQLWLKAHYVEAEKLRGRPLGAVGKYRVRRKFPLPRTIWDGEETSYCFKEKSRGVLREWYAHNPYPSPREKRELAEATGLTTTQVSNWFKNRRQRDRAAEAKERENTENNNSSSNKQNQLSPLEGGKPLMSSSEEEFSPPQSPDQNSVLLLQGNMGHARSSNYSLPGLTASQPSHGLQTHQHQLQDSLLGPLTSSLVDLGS
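AlphaScreen luminescence read after one hour at 37 °C in darkness. Pin-transferred compounds met GST-Six1 and His-Eya2 protein (5X stock 250 nM/500 nM) plus glutathione donor and Ni-chelate acceptor beads (5X, 50 ug/mL).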
The depositor's hits bear a star; u = inconclusive; x = not tested or not shown; & = joins results of further samples; [ ] = another dose, or the depositor's remark.

SMILES	D2 PAM	D2 ag	TRPML1 agonist	PINK1 expr mod	CtBP-E1A inh	Six1-Eya2 inh
CCCn1c(NCc2ccc(C)o2)nc2ccccc21	-13	-1.6	1.3	-2.8%[38.3 µM]	-9	-9
CN1CCNC(=O)C1CC(=O)NCCc1ccccc1F (configuration not stated)	2	4.4	-0.4	-0.2%	6	-1
COc1ccc(-c2coc3cc(O)cc(O)c3c2=O)cc1	3	-7.6	-0.9	4.6%&2.1%	-24	0
CCOC(=O)c1c(C)[nH]c(C(=O)OCc2nc3ccsc3c(=O)[nH]2)c1C	-6	-1.8	-0.1	1.3%	-8	-20
COc1nc(N/N=C/c2cc3c(cc2Br)OCO3)nc(N2CCOCC2)n1	8	0.4	-0.3	-1.3%	-5	-9
CC1(C(=O)OCC(=O)N2c3ccccc3Sc3ccccc32)CC1(Cl)Cl (configuration not stated)	-14	-0.2	0.0	-0.9%	x	3
CCOC(=O)N1CCN(Cc2ccccc2F)CC1	8	7.3	0.0	8.1%[38.3 µM]	5	1
Cc1ccc(NC(=O)C2(C)CCN2C(=O)Cc2ccc(C(C)C)cc2)cc1 (configuration not stated)	-4	10	-0.4	3.7%	1	0
CC(C)(C)NC(=O)C(c1cccs1)N(CC1CCCO1)C(=O)Cn1nnc(-c2cccs2)n1 (configuration not stated)	-3	-0.8	0.1	-0.2%[38.3 µM]	-4	-1
O=C(c1ccco1)N(Cc1cccc(F)c1)C1CCS(=O)(=O)C1 (configuration not stated)	2	-0.8	-0.9	-0.3%	3	1
CCn1nc(C)c([N+](=O)[O-])c1C(=O)NNC(=O)c1ccccc1Cl	-10	-0.9	-0.3	-0.8%	5	4
COCc1nnc(NC(=O)c2ccc(S(=O)(=O)N3CCCC3)cc2)o1	-12	2.4	-0.6	-1.3%	-1	-28
O=C(CCNc1ccccc1)c1ccc2c(c1)OCO2	-14	-1.2	3.4	-1.5%	-1	-12
Cc1ccc(S(=O)(=O)CCC(=O)OCC(=O)Nc2cc(S(=O)(=O)N3CCOCC3)ccc2C)cc1	0	-3.9	-1.1	2.4%	1	-1
CCCCc1nc2sc3c(=O)[nH]cnc3c2c2c1CCCC2	-7	-0.3	-0.5	-0.5%	0	-12
O=C(NCc1ccco1)C(C(=O)c1ccccc1)n1ccccc1=O (configuration not stated)	3	0.1	0.7	-0.9%	-1	8
CCN1Cc2c(/C=C/c3ccccc3)nc3ccc(OC)cc3c2N(c2cccc(Cl)c2)C1	-40	u	0.4	2.2%	x	-6
O=C(Nc1cccnc1)c1ccc(COCC(F)(F)F)cc1	-12	-2.3	0.0	1.9%[38.3 µM]	-15	-3
O=[N+]([O-])c1cccc(-c2nnc3ccc4ccccc4n23)c1	-21	-5.0	-0.3	1.0%	-17	-22
O=C(O)COc1ccc2c(-c3ccccc3)cc(=O)oc2c1	-1	-3.2	-0.5	0.0%	5	8
O=C(c1ccc(N2CCN(CCO)CC2)nc1)N1CCOCC1	-1	-2.0	0.2	1.7%	-10	8
CC(C)n1c(=O)[nH][nH]c1=S	-3	-0.4	0.6	-1.1%	2	0
O=C(Oc1cc(=O)oc2ccccc12)c1cccnc1Cl	2	-1.1	1.6	3.5%	-11	-2
CC(=O)N(C)c1ccc(NC(=O)c2ccco2)cc1	27	0.5	0.0	0.2%	-1	4
OC[C@@H]1CN(Cc2cccc(C(F)(F)F)c2)C[C@H](n2cnc3c(NCc4ccc(F)cc4)ncnc32)O1	-5	2.2	3.5	7.2%	1	-10
Cc1cc(C)cc(NC(=O)Cn2nnc3ccccc3c2=O)c1	-9	6.2	3.1	0.8%	-19	8
COc1cccc(OCc2cc(C(=O)N(C)Cc3nc4ccccc4[nH]3)no2)c1	-11	-0.7	0.7	0.1%	-7	-5
C=CCCC(=O)Nc1nc(C)c(-c2csc(Nc3ccc(Cl)cc3Cl)n2)s1	-2	2.5	-0.2	0.8%	-6	-12
CN(C)/C=C/C(=O)c1ccc(Br)s1	-11	-3.0	-0.3	1.3%	-5	0
Cc1cc(C(=O)NCc2cccnc2)n(-c2ccccc2)n1	1	-3.0	-0.3	0.7%	8	2
CCOC(=O)C1CCCN(Cc2cc(=O)oc3cc(C)ccc23)C1 (configuration not stated)	-19	-0.5	0.9	0.6%	12	-8
C/C(=N\NC(=O)c1ccc(Cl)cc1)c1cccnc1	-19	-4.0	1.2	0.5%	1	-5
COc1ccccc1/C=C/C(=O)c1cc(Br)ccc1OC(=O)c1ccco1	9	-2.6	0.3	-1.8%	0	-4
COc1ccc(NC(=O)c2ccc(Cl)nc2)cc1S(=O)(=O)N1CCOCC1	4	4.2	-1.0	12%	x	-19
Cc1ccccc1NC(=O)CCN1CCc2ccccc2C1	-40	-6.1	-1.0	3.4%	-2	-3
N#CCSc1nnc(-c2ccccc2O)n1CCc1ccccc1	-14	-4.3	-0.5	0.7%	-2	2
Cc1cccc(NC(=S)N2CCC(O)CC2)c1C	-3	2.1	0.0	-0.4%	6	7
O=C(NCc1ccccc1F)c1ccc(S(=O)(=O)NCc2ccco2)cc1	1	-1.4	0.0	3.2%	0	-3
COc1ccc(C(NC(=O)/C=C/c2ccco2)c2ccc(OC)c(OC)c2)cc1OC	-8	1.4	-0.4	-3.0%	-7	-9
CC(C)C1CC(c2csc(N)n2)CCO1 (configuration not stated)	-12	11	-0.8	-1.6%	-8	-26

Copied from the results shown, three compounds:
SMILES	D2 PAM	D2 ag	TRPML1 agonist	PINK1 expr mod	CtBP-E1A inh	Six1-Eya2 inh
O=C(NCc1ccccc1F)c1ccc(S(=O)(=O)NCc2ccco2)cc1	1	-1.4	0.0	3.2%	0	-3
COc1ccc(C(NC(=O)/C=C/c2ccco2)c2ccc(OC)c(OC)c2)cc1OC	-8	1.4	-0.4	-3.0%	-7	-9
CC(C)C1CC(c2csc(N)n2)CCO1 (configuration not stated)	-12	11	-0.8	-1.6%	-8	-26

(cont.)
SMILES	D2 PAM	D2 ag	TRPML1 agonist	PINK1 expr mod	CtBP-E1A inh	Six1-Eya2 inh
COc1cc([N+](=O)[O-])ccc1NC(=O)/C=C/C(=O)O	-34	-0.2	-0.3	0.5%	4	3
COc1ccc([C@H]2CC(=O)C=C(c3cccc4c3Oc3ccccc3S4)C2)cc1	-14	-3.3	0.1	5.8%	-10	-3
COc1ccc(CCNC(=O)CCC(=O)Nc2nnc(C(C)C)s2)cc1OC	-19	-5.5	-0.5	-0.5%	-1	0
Cc1nn(CC(=O)NCCc2ccccc2)c(=O)c2cc3occc3n12	-9	-4.3	-0.7	0.1%	1	4
C=CCc1cccc(/C=N/NC(=O)C(C)Nc2ccc(C)cc2)c1O (configuration not stated)	-25	-3.1	3.8	5.5%	-15	-5
Cc1ccc(S(=O)(=O)N2CCN(C(=O)CN3CCN(c4ccc(O)cc4)CC3)CC2)cc1	8	2.9	-0.7	0.0%	x	-1
CCOc1ccc(CNC(=O)CCCn2nc(CC)n3c(cc4occc43)c2=O)cc1	-10	-1.7	2.7	1.2%	x	-2
O=C(CSc1nnc2c(n1)[nH]c1ccc(F)cc12)NC1CC1	2	0.6	1.2	-0.3%	-8	6
N=c1ccn(Cc2ccccc2Cl)cc1	-4	-10	1.3	0.5%	6	0
CC(C)NC(=O)CN1CCC(O)(c2ccccc2)CC1	-24	-0.6	0.3	-1.3%[38.3 µM]	9	4
O=CN1CCN(C(=O)CN2C(=O)c3ccccc3C2=O)CC1	2	-0.9	-0.1	-0.7%	0	2
CCCN(C)C1CN(Cc2cn(CCCC(=O)OC)nn2)S(=O)(=O)C1 (configuration not stated)	x	x	-0.8	1.0%	0	-4
Cc1ccccc1C(=O)N1CCN(CCNC(=O)C(=O)Nc2ccc(Br)cc2)CC1	-16	0.1	-0.3	4.1%	-1	10
Cc1ccc(NC(=O)c2ccc3c(c2)C(=O)N(CC2CCCO2)C3=O)cc1C (configuration not stated)	-5	4.2	-0.8	-0.3%	-3	-7
CSc1sc(C(=O)NCC2CC2)c2c1S(=O)(=O)N(C)c1ccccc1-2	-8	-6.2	0.6	7.3%	-17	-17
CC(C)CCNC(=O)CN(C(=O)CCC(=O)Nc1nccs1)c1ccc2c(c1)OCCO2	-1	-1.6	-0.2	9.5%	3	6
Cc1cccc(N2CCN(C(=O)c3nn(C)c4c3CS(=O)(=O)c3ccccc3-4)CC2C)c1 (configuration not stated)	8	-2.0	0.6&-0.1	0.0%&3.2%	-26	-9
COC(=O)c1cc(C(=O)OC)cc(-n2c(C)cc(C(=O)COC(=O)CNS(=O)(=O)c3ccc(C)cc3)c2C)c1	-2	-1.2	1.1	3.3%	u	-24
O=C(/C=C/c1ccccc1)c1ccccn1	-11	-0.2	0.3	25%	-1	-4
COc1ccc(C(=O)O)c(OC)n1	-5	-6.2	x	1.4%	-5	-1

A second format for part of the listing above.
Values run as follows: D2 PAM | D2 ag | TRPML1 agonist | PINK1 expr mod | CtBP-E1A inh | Six1-Eya2 inh
- COC(=O)c1cc(C(=O)OC)cc(-n2c(C)cc(C(=O)COC(=O)CNS(=O)(=O)c3ccc(C)cc3)c2C)c1
    -2 | -1.2 | 1.1 | 3.3% | u | -24
- COc1cc([N+](=O)[O-])ccc1NC(=O)/C=C/C(=O)O
    -34 | -0.2 | -0.3 | 0.5% | 4 | 3
- O=C(/C=C/c1ccccc1)c1ccccn1
    -11 | -0.2 | 0.3 | 25% | -1 | -4
- COc1ccc([C@H]2CC(=O)C=C(c3cccc4c3Oc3ccccc3S4)C2)cc1
    -14 | -3.3 | 0.1 | 5.8% | -10 | -3

The listing continues.
SMILES	D2 PAM	D2 ag	TRPML1 agonist	PINK1 expr mod	CtBP-E1A inh	Six1-Eya2 inh
CCOc1ccccc1CNC(=O)C1CCN(c2nn3c(=O)cc(C)nc3s2)CC1	-14	-0.7	1.1	-1.7%	-7	-8
Cc1ccc(NC(=O)C(=O)NC2CCCCC2)cc1	-17	-0.9	-0.1	u	9	-7
COc1cccc(CNc2nc3cc(-c4csc5ccccc45)sc3c(=O)n2C)c1	-12	5.3	1.1	1.2%	9	-5
Cc1ccc(-c2nnc(SCC(=O)Nc3cccnc3Cl)n2N)cc1	-7	-3.3	-1.6	0.4%	x	-1
CCOC(=O)c1cnc(Nc2ccccc2)nc1C(F)(F)F	-2	1.4	1.8	0.8%	19	8
CCC(CC)NC(=O)COC(=O)c1ccc2c(c1)C(=O)N(Cc1ccco1)C2=O	-7	0.8	0.2	0.0%	1	3
O=C(Oc1ccc(=O)n(-c2ccccc2)n1)c1ccccc1	2	0.4	1.8	-2.9%	6	-18
O=C1CCCCC1Oc1ccc2ccc(=O)oc2c1 (configuration not stated)	3	-11	-0.2	1.0%	2	4
COc1cc(/C=C(\C#N)c2[nH]nc(N)c2C#N)cc(OC)c1O	-18	-3.6	4.6	11%	-67*	u
COc1ccc(Cl)cc1NC(=O)COC(=O)/C=C/c1c(C)nn(C2CCS(=O)(=O)C2)c1Cl (configuration not stated)	-14	-2.4	1.7	-1.4%	0	0
CC(CC(=O)N1CCN(c2cccc(Cl)c2)CC1)S(=O)(=O)c1ccc2c(c1)NC(=O)CO2 (configuration not stated)	-21	7.1	-0.5	-0.4%	0	1
Cn1nc(C(C)(C)C)cc1C(=O)NCc1ccc(N2CCCC2=O)cc1	-9	-1.8	1.7	2.1%[38.3 µM]	1	-1
CCn1c(C(=O)O)c(CC(=O)Nc2cccc(C(F)(F)F)c2)c2ccccc21	7	-3.0	0.2	0.2%	x	0
